Yeast UUG start: modulators of yeast start codon fidelity, primary screen, whole organism, S. cerevisiae, single point, plate reader. 350,000 compounds, 0.13% hits. activity score, % at 18.7 µM. S. cerevisiae UUG-firefly luciferase reporter, luminescence/redox ratio;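 active means replicate mean at a twofold rise or more, about +100% in these data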;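 further: firefly luciferase made from a UUG start codon reports start codon fidelity; reporter light over untreated wells divided by growth signal over untreated wells; some hits fall short of that in this replicate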
HIV Env fusion: inhibitors of HIV-1 Env-driven cell-cell fusion, primary screen, HeLa-JRFL effector, CEM21 target cells, luciferase. inhibition, % at 12.3 µM. 360,000 compounds, 1.1% hits;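 active means mean replicate inhibition score of at least 50 and every replicate individually at or above 50; inconclusive means only one of the two criteria met; inactive means mean below 50 and not all replicates reaching 50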;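 further: 0% = plate neutral controls and 100% = maraviroc near 300 nM; one replicate is shown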
Numbers without * were called inactive; ? = inconclusive; [ ] = another dose, or the depositor's remark. Only part of the results is shown; count on the stated rates, not on these rows.

SMILES	Yeast UUG start	HIV Env fusion
Cc1noc(C)c1NC(=O)Nc1ccc2c(c1)C(=O)N([C@@H](C)CO)C[C@H](C)[C@H](CN(C)CC1CCCCC1)OCCCC[C@@H](C)O2	12	-2[16.7 µM]
CC(C)NC(=O)Nc1ccc2c(c1)C(=O)N([C@H](C)CO)C[C@H](C)[C@H](CN(C)Cc1ccc(C(F)(F)F)cc1)OCCCC[C@@H](C)O2	4	-3[16.7 µM]
C[C@@H]1CCCCO[C@@H](CN(C)C(=O)Nc2ccc3c(c2)OCO3)[C@H](C)CN([C@@H](C)CO)C(=O)c2cc(NC(=O)CCCN(C)C)ccc2O1	19	-2[16.7 µM]
Cc1noc(C)c1NC(=O)N(C)C[C@H]1OCCCC[C@H](C)Oc2ccc(NC(=O)Nc3ccc(C(F)(F)F)cc3)cc2C(=O)N([C@H](C)CO)C[C@@H]1C	-14	3[16.7 µM]
Cc1nn(C)cc1NC(=O)C[C@H]1CC[C@H]2[C@H](COc3ccc(NC(=O)NC(C)C)cc3C(=O)N2C)O1	-12	10[16.7 µM]
COc1ccc(S(=O)(=O)Nc2ccc3c(c2)C(=O)N([C@@H](C)CO)C[C@@H](C)[C@@H](CN(C)S(=O)(=O)c2ccc(C)cc2)O3)cc1	3	-32[16.7 µM]
COCC(=O)N(C)C[C@@H]1Oc2ncc(-c3ccc(C)cc3)cc2C(=O)N([C@@H](C)CO)C[C@H]1C	1	-9[16.7 µM]
C[C@H]1CN([C@@H](C)CO)C(=O)Cc2cc(NC(=O)CCN3CCOCC3)ccc2O[C@@H]1CN(C)Cc1ccc(C(=O)O)cc1	-7	-13[16.7 µM]
O=C(N[C@@H]1CC[C@@H](CCNC(=O)C2CC2)O[C@H]1CO)c1ccccn1	-6	-9[16.7 µM]
COc1ccc(S(=O)(=O)Nc2ccc3c(c2)C(=O)N([C@H](C)CO)C[C@H](C)[C@@H](CN(C)S(=O)(=O)c2ccc(F)cc2)OCCCC[C@@H](C)O3)cc1	1	12[16.7 µM]
Cc1noc(C)c1NC(=O)Nc1ccc2c(c1)C(=O)N([C@@H](C)CO)C[C@H](C)[C@H](CN(C)C(=O)NC1CCCCC1)OCCCC[C@H](C)O2	-3	-7[16.7 µM]
Cc1ccc(S(=O)(=O)N[C@H]2CC[C@H](CCn3cc(C(C)C)nn3)O[C@@H]2CO)cc1	0	21[16.7 µM]
CN1C(=O)c2cc(NC(=O)C3CC3)ccc2OC[C@H]2O[C@@H](CC(=O)NCC3CCCCC3)CC[C@@H]21	-6	0[16.7 µM]
O=C(Cc1ccncc1)NCC[C@@H]1CC[C@H](NC(=O)C2CC2)[C@H](CO)O1	6	?
C[C@H]1CN([C@@H](C)CO)C(=O)c2cc(-c3ccncc3)cnc2O[C@@H]1CN(C)Cc1ccc(F)cc1	-5	-17[16.7 µM]
C[C@@H]1CN([C@@H](C)CO)C(=O)c2cc(C3=CCCC3)cnc2O[C@H]1CN(C)C(=O)c1ccccn1	-7	-1[16.7 µM]
CC(C)CC#Cc1ccc2c(c1)O[C@@H](CN(C)Cc1ccc3c(c1)OCO3)[C@H](C)CN([C@@H](C)CO)S2(=O)=O	1	8[16.7 µM]
COc1cccc(C(=O)Nc2ccc3c(c2)C(=O)N(C)[C@@H]2CC[C@H](CC(=O)NCC4CC4)O[C@@H]2CO3)c1	6	14[16.7 µM]
C[C@H](CO)N1C[C@H](C)[C@@H](CN(C)C(=O)c2ccccc2)Oc2ncc(/C=C/c3ccccc3)cc2C1=O	-3	32[16.7 µM]
COc1ccccc1-c1ccc([C@H]2[C@H](C#N)N(C(=O)C3CCC3)[C@H]2CO)cc1	13	3[16.7 µM]
Cc1ccc(S(=O)(=O)N(C)C[C@@H]2OCCCC[C@H](C)Oc3ccc(NC(=O)Nc4c(C)noc4C)cc3C(=O)N([C@@H](C)CO)C[C@@H]2C)cc1	5	47[16.7 µM]
CN1C(=O)c2cc(NC(=O)c3cscn3)ccc2OC[C@@H]2O[C@@H](CC(=O)NCC3CC3)CC[C@H]21	-4	-7[16.7 µM]
C[C@@H]1CCCCO[C@@H](CN(C)S(=O)(=O)c2cccs2)[C@@H](C)CN([C@@H](C)CO)C(=O)c2cc(N(C)C)ccc2O1	9	11[16.7 µM]
C[C@@H]1CN([C@@H](C)CO)C(=O)c2cc(NS(=O)(=O)c3ccc(F)cc3)ccc2O[C@@H]1CN(C)S(=O)(=O)c1cccs1	4	-33[16.7 µM]
COc1ccc(NC(=O)N(C)C[C@H]2Oc3ccc(NS(C)(=O)=O)cc3CC(=O)N([C@H](C)CO)C[C@@H]2C)cc1	-13	0[16.7 µM]
Next section:
SMILES	Yeast UUG start	HIV Env fusion
CNC[C@H]1Oc2ncc(-c3ccccc3C)cc2C(=O)N([C@H](C)CO)C[C@H]1C	17	-22[16.7 µM]
C[C@@H]1CCCCO[C@H](CN(C)C(=O)NC2CCCCC2)[C@@H](C)CN([C@@H](C)CO)C(=O)c2cc(NS(=O)(=O)c3cn(C)cn3)ccc2O1	0	18[16.7 µM]
CCCNC(=O)N1C[C@@H](O)COC[C@@H]2O[C@@H](CC(=O)N[C@H]3CCN(Cc4ccccc4)C3)CC[C@H]21	-12	-30[16.7 µM]
CC1(C(=O)NCCC#N)CCN1C(=O)C1(c2ccccc2)CC1 (stereo not drawn)	-7	-16
COc1ccc(S(=O)(=O)Nc2ccc3c(c2)CC(=O)N([C@@H](C)CO)C[C@@H](C)[C@@H](CN(C)Cc2ccc4c(c2)OCO4)O3)cc1	18	-6[16.7 µM]
C[C@H](CO)N1C[C@H](C)[C@@H](CN(C)Cc2ccc(Cl)c(Cl)c2)Oc2ccc(NC(=O)Nc3ccc(C(F)(F)F)cc3)cc2CC1=O	-6	28[16.7 µM]
Cc1ccc(S(=O)(=O)Nc2cccc3c2O[C@@H](CN(C)C(=O)Nc2ccc(C(F)(F)F)cc2)[C@@H](C)CN([C@@H](C)CO)C3=O)cc1	-8	-28[16.7 µM]
C[C@H](CO)N1C[C@H](C)[C@@H](CN(C)Cc2ccccc2)OCCCC[C@H](C)Oc2ccc(NC(=O)Nc3cccc4ccccc34)cc2C1=O	25	5[16.7 µM]
C[C@@H]1CN([C@H](C)CO)C(=O)c2cccc(N(C)C)c2O[C@@H]1CN(C)C(=O)Nc1cccc2ccccc12	-13	2[16.7 µM]
C[C@@H]1CCCCO[C@H](CN(C)CC2CCCCC2)[C@@H](C)CN([C@H](C)CO)C(=O)c2cc(NC(=O)Nc3ccc(F)cc3)ccc2O1	10	-5[16.7 µM]
C[C@H]1CN([C@@H](C)CO)C(=O)c2cc(C#Cc3cccnc3)cnc2O[C@@H]1CN(C)S(C)(=O)=O	-5	-3[16.7 µM]
C/C=C/c1ccc2c(c1)O[C@@H](CN(C)C(=O)Cc1ccccn1)[C@@H](C)CN([C@@H](C)CO)S2(=O)=O	14	18[16.7 µM]
C[C@H](CO)N1C[C@H](C)[C@H](CN(C)C(=O)c2ccc(F)cc2)Oc2ncc(Br)cc2C1=O	5	-2[16.7 µM]
C[C@H]1CN([C@@H](C)CO)C(=O)c2cccc(NC(=O)c3ccc(-c4nccs4)cc3)c2O[C@@H]1CN(C)S(=O)(=O)c1ccccc1	18	-64[16.7 µM]
C[C@H](CO)N1C[C@H](C)[C@H](CN(C)Cc2ccc(Oc3ccccc3)cc2)Oc2c(NC(=O)Nc3ccccc3)cccc2C1=O	-5	4[16.7 µM]
C[C@@H]1CCCCO[C@H](CN(C)Cc2ccc(Cl)c(Cl)c2)[C@@H](C)CN([C@H](C)CO)C(=O)c2cc(NS(=O)(=O)c3cccs3)ccc2O1	7	-6[16.7 µM]
O=C(Nc1ccc(Cl)cc1)N[C@@H]1CC[C@@H](CCNS(=O)(=O)c2ccccc2F)O[C@H]1CO	14	8[16.7 µM]
C[C@@H]1CN([C@@H](C)CO)C(=O)c2cccc(NC(=O)Nc3ccc(F)cc3)c2O[C@@H]1CN(C)C(=O)NC1CCCCC1	1	-33[16.7 µM]
C[C@@H]1CCCCO[C@@H](CN(C)S(=O)(=O)c2cn(C)cn2)[C@H](C)CN([C@H](C)CO)C(=O)c2cc(NC(=O)Nc3ccc(F)cc3)ccc2O1	7	-8[16.7 µM]
C[C@@H]1CN([C@@H](C)CO)C(=O)c2cccc(NC(=O)c3nc4ccccc4s3)c2O[C@@H]1CN(C)Cc1ccc(Cl)c(Cl)c1	16	-23[16.7 µM]
C[C@H]1CCCCO[C@@H](CN(C)C)[C@@H](C)CN([C@@H](C)CO)C(=O)c2cc(NC(=O)c3ccccc3)ccc2O1	-5	-5[16.7 µM]
COc1ccc(NC(=O)Nc2ccc3c(c2)C(=O)N([C@H](C)CO)C[C@@H](C)[C@H](CN(C)Cc2ccc4c(c2)OCO4)OCCCC[C@H](C)O3)cc1	75	13[16.7 µM]
O=C(C[C@@H]1C=C[C@@H](NC(=O)NC2CCCCC2)[C@@H](CO)O1)NCc1ccccc1	-12	3[16.7 µM]
C[C@@H]1CCCCO[C@@H](CN(C)S(=O)(=O)c2ccc(Cl)cc2)[C@@H](C)CN([C@@H](C)CO)C(=O)c2cc(NC(=O)CCCN(C)C)ccc2O1	-1	-1[16.7 µM]
C[C@@H]1CN([C@H](C)CO)C(=O)c2cc(N(C)C)ccc2O[C@@H]1CN(C)Cc1ccc(Oc2ccccc2)cc1	5	24[16.7 µM]

Four compounds already listed, ordered by their value in Yeast UUG start, ascending:
SMILES	Yeast UUG start	HIV Env fusion
C[C@@H]1CCCCO[C@H](CN(C)CC2CCCCC2)[C@@H](C)CN([C@H](C)CO)C(=O)c2cc(NC(=O)Nc3ccc(F)cc3)ccc2O1	10	-5[16.7 µM]
C/C=C/c1ccc2c(c1)O[C@@H](CN(C)C(=O)Cc1ccccn1)[C@@H](C)CN([C@@H](C)CO)S2(=O)=O	14	18[16.7 µM]
C[C@H](CO)N1C[C@H](C)[C@@H](CN(C)Cc2ccccc2)OCCCC[C@H](C)Oc2ccc(NC(=O)Nc3cccc4ccccc34)cc2C1=O	25	5[16.7 µM]
COc1ccc(NC(=O)Nc2ccc3c(c2)C(=O)N([C@H](C)CO)C[C@@H](C)[C@H](CN(C)Cc2ccc4c(c2)OCO4)OCCCC[C@H](C)O3)cc1	75	13[16.7 µM]

In the list so far, 2 have a cyano group.
SMILES	Yeast UUG start	HIV Env fusion
COc1ccccc1-c1ccc([C@H]2[C@H](C#N)N(C(=O)C3CCC3)[C@H]2CO)cc1	13	3[16.7 µM]
CC1(C(=O)NCCC#N)CCN1C(=O)C1(c2ccccc2)CC1 (stereo not drawn)	-7	-16

New compounds follow:
SMILES	Yeast UUG start	HIV Env fusion
C[C@H](CO)N1C[C@H](C)[C@H](CN(C)S(=O)(=O)c2ccc(F)cc2)Oc2ccc(NC(=O)CCC(F)(F)F)cc2C1=O	-4	8[16.7 µM]
COc1ccc(S(=O)(=O)Nc2ccc3c(c2)C(=O)N([C@H](C)CO)C[C@@H](C)[C@H](CN(C)Cc2ccncc2)OCCCC[C@@H](C)O3)cc1	12	-16[16.7 µM]
C[C@H]1CN([C@@H](C)CO)C(=O)c2cccc(NC(=O)C3CCOCC3)c2O[C@@H]1CN(C)S(=O)(=O)c1ccc(F)cc1	-5	-25[16.7 µM]
O=C(NCc1ccc(F)cc1)[C@@H]1C[C@@H]2C(=O)N3CCC[C@H]3C(=O)N2[C@@H]1c1ccc(O)cc1	6	3[16.7 µM]
CN(C)CCCNC(=O)C[C@@H]1CC[C@@H]2[C@H](COC[C@H](O)CN2S(=O)(=O)c2ccc(Cl)cc2)O1	7	-5[16.7 µM]
C[C@H](CO)N1C[C@H](C)[C@H](CN(C)Cc2ccc(C(=O)O)cc2)OCCCC[C@H](C)Oc2ccc(NC(=O)Nc3ccccc3)cc2C1=O	4	2[16.7 µM]
C[C@@H]1CN([C@@H](C)CO)C(=O)Cc2cc(NC(=O)CCN3CCOCC3)ccc2O[C@H]1CN(C)Cc1ccc(Oc2ccccc2)cc1	4	10[16.7 µM]
C[C@@H]1CN([C@H](C)CO)C(=O)c2cccc(NC(=O)c3ccncc3)c2O[C@@H]1CN(C)Cc1ccc(C(=O)Nc2ccccc2N)cc1	-5	-25[16.7 µM]
CC(C)CC#Cc1ccc2c(c1)O[C@H](CN(C)Cc1ccccc1)[C@H](C)CN([C@H](C)CO)S2(=O)=O	9	8[16.7 µM]
COc1ccc(NC(=O)Nc2ccc3c(c2)C(=O)N([C@@H](C)CO)C[C@@H](C)[C@@H](CN(C)C(=O)Nc2ccc(OC)cc2)OCCCC[C@H](C)O3)cc1	-20	-1[16.7 µM]
CO[C@H]1O[C@H](CO)[C@@H](OC(=O)Nc2cccc(F)c2)[C@@H]2OC(=O)[C@@H](Cc3ccccc3)C/C=C/C[C@H](Cc3ccccc3)C(=O)O[C@@H]12	-2	20[16.7 µM]
CC(C)CC#Cc1ccc2c(c1)O[C@@H](CN(C)C(=O)c1ccccc1)[C@@H](C)CN([C@@H](C)CO)S2(=O)=O	1	5[16.7 µM]
CC(C)CC#Cc1cnc2c(c1)C(=O)N([C@@H](C)CO)C[C@@H](C)[C@@H](CN(C)C(=O)Nc1cccc(F)c1)O2	17	4[16.7 µM]
O=C(CN1CCOCC1)N[C@H]1CC[C@@H](CCNS(=O)(=O)c2ccccc2F)O[C@@H]1CO	3	12[16.7 µM]
CCCNC(=O)N(C)C[C@@H]1Oc2cc(C3=CCCCC3)ccc2S(=O)(=O)N([C@@H](C)CO)C[C@H]1C	1	-29[16.7 µM]
O=C(NCC[C@@H]1CC[C@H](NS(=O)(=O)c2cccc(F)c2)[C@H](CO)O1)C1CCCCC1	-14	-8[16.7 µM]
